# Assay outcomes (PubChem BioAssay)
# RVFV N-RNA FP: blocks Rift Valley Fever Virus nucleoprotein binding to RNA; % bound, % (no concentration beside the values); actives 0.1% (n = 20,000); P21700; AID 651828; RVFV N-RNA binding, fluorescence polarization; hits give low values;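 active = between 0 and 58% in either replicate with normal brightness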;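 note: 100 nL library stock added to about 12 µL; 100% = protein and probe without compound and 0% = probe alone; numbers are from one replicate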
# Target sequence (P21700 whole entry, looked up): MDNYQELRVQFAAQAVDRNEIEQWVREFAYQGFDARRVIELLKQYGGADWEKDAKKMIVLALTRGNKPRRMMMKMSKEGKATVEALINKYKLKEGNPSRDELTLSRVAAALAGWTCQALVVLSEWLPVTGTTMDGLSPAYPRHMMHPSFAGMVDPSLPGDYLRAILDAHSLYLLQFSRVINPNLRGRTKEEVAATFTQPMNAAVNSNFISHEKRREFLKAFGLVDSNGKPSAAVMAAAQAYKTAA
# Starred values were filed as active, the others as inactive; & = joins results of further samples. This is a subset; rates above refer to the full screens.
SMILES | RVFV N-RNA FP
O=c1[nH]c(CSC2CCCCC2)nc2ccccc12 | 85
COc1ccc(S(=O)(=O)N2Cc3ccccc3CC2C(=O)Nc2nccs2)cc1OC (stereo unspecified) | 96
O=C(O)CS(=O)(=O)c1ccccc1 | 110
O=C(NCCSc1nnnn1-c1ccccc1)c1ccco1 | 94
CCSc1n[nH]c(C(F)(F)F)n1 | 89
O=C(NCc1n[nH]c(=O)c2ccccc12)C1CC1 | 90
CNS(=O)(=O)c1cc(C(C)(C)C)cc(C)c1C | 99
O=C(NCC(F)(F)F)OCc1ccc(F)cc1 | 90
CCOC(=O)/C(C#N)=C1/C=C(C)NC(c2ccccc2O)=N1 | 96
COc1ccccc1N1CCN(C(=O)[C@H](C)N2CCN(c3nc4cc(Cl)ccc4s3)CC2)CC1 | 89
C=CCN1CCC23c4c5ccc(O)c4O[C@H]2C(=O)CC[C@@]3(O)C1C5 (stereo partly specified) | 95
Cn1cnc2cc3c(Nc4cccc(Br)c4)ncnc3cc21 | 109
CC(C)C(=O)c1cc2c(cc1N)OCCO2 | 92
COc1ccc(NCC(O)COc2ccc(OC)cc2)cc1 (stereo unspecified) | 98
Brc1ccc(-n2nnnc2-c2cn[nH]c2-c2ccccc2)cc1 | 91
O=C1CNC(=O)N1CC(O)Cn1c2ccccc2c2ccccc21 (stereo unspecified) | 96
Cc1ccc(N/C(N)=N/c2nc(CSc3nnc(C)s3)cc(=O)[nH]2)c(C)c1 | 98
CSc1ccnc2c1c(=O)n(C)c(=O)n2C | 99
CCOC(=O)c1cnc2nc(C(F)(F)F)nn2c1N | 98
Nc1nc(SCCc2ccccc2)n[nH]1 | 89
FC(F)(F)c1ccc(N2CCN(C(c3ccccc3)c3ccccc3)CC2)nc1 | 93
COc1ccc(CCNC(=S)NCc2ccco2)cc1OC | 96
Cc1ccc(S(=O)(=O)NC(=O)NN2CCCCCC2)cc1 | 98&98&94
COc1ccc(CN2CN(C(C)C)CSC2=S)cc1 | 99
Cc1nc2ccccc2c(=O)n1-c1cccc(NC(=O)C2CC2)c1 | 83
COC(=O)C1CCN(C(=O)Nc2ccccc2)CC1 | 103
O=C(Nc1nnc(-c2ccc3c(c2)CCCC3)o1)C1CC1 | 105
COc1ccccc1-c1nn(-c2ccc(C(F)(F)F)cn2)c(=O)o1 | 94
CC1(C)NC(=O)N(CCSc2ccc(Cl)cc2)C1=O | 95
Cc1cc(OCC(=O)Nc2ccccc2N2CCN(C)CC2)cc(C)c1Cl | 96
Clc1ccc(SCc2cn3ccsc3n2)cc1 | 94
CCN(CC)C(=O)CP(=O)(c1ccccc1)c1ccccc1 | 94
CN(C(=O)CSc1nc(N)c(NC(=O)c2ccccc2)c(=O)[nH]1)c1ccccc1 | 99
Cc1nn(-c2ccccc2)nc1CNS(C)(=O)=O | 97
COc1ccccc1-c1nc(-c2cccc(Br)c2)no1 | 95
Cc1ccc(NC(=O)c2cc3ccccc3c([N+]#N)c2[O-])cc1 | 88
CCCc1nc2c(sc3nc4c(cc32)COC(C)(C)C4)c(=O)n1N | 103
CC12C(=O)OC(=O)C1(C)C1CCC2O1 (stereo unspecified) | 98
Cc1cc2cc(CNC(=O)NC3CCCCC3)ccc2n1C | 98
CN1C2C[C@H](OC(=O)[C@H](CO)c3ccccc3)C[C@H]1[C@@H](O)C2 | 102
Cc1ccccc1OCC1=NN2C(=N)/C(=C/c3ccc(N(C)C)cc3)C(=O)N=C2S1 | 79
COc1cc(C)c(CN2CCCCC2)cc1C | 102
NC(=S)NNc1ccc(F)cc1 | 93
Cn1cc(SCC(=O)NC2CCCC2)c2ccccc21 | 85
O=C(Nc1ccc(-c2cn3c(n2)SCC3)cc1)c1ccc(Br)o1 | 99
O=C1CNC(=S)N1CC1CCCO1 (stereo unspecified) | 89
CSc1nc2ccccc2c(=O)n1N | 97
CNNC(=S)Nc1ccc(Cl)cc1 | 98
CCN=C1SC(CC(N)=O)C(=O)N1CC (stereo unspecified) | 102
Cc1cccc(NC(=O)Nc2ccc(C)c(C)c2)c1 | 94
O=c1cc(OCc2ccccc2)c2ccccc2[nH]1 | 95
COc1ccc(C)cc1NC(=O)N1CCN(S(C)(=O)=O)CC1 | 93
CO[C@@]1(NC(=O)Cc2cccs2)C(=O)N2C(C(=O)O)=C(COC(N)=O)CS[C@@H]21 | 98
CC(=O)OC1CC2CCC1(C)C2(C)C (stereo unspecified) | 100
COC(=O)C1=CN(CC(C)C)C=C(C(=O)OC)C1c1cccc(F)c1 | 109
O=C(CS(=O)(=O)c1ccccc1)Nc1ccccn1 | 97
CCC(=O)Nc1cccc(NC(C)=O)c1 | 94
C=CCN(CC=C)C(=O)CSc1nnc(N)s1 | 99
COc1cccc2c1OC1=C(C(=O)CCC1)C2C1=C(O)CCCC1=O (stereo unspecified) | 101
CCS(=O)(=O)c1ccccc1C(=O)Nc1nc(-c2ccc3c(c2)OCCO3)cs1 | 93

# Next structures follow:
SMILES | RVFV N-RNA FP
O=c1[nH]c(=O)n(-c2ccccc2)c(O)c1C=NCCO | 90
N/C(=N\OC(=O)CC1CCCCC1)c1ccccc1 | 92
c1ccc2c(c1)nnn2CNCn1nnc2ccccc21 | 91
NNC(=O)CC(=O)Nc1nc2ccccc2s1 | 88
CCc1nc(N)ncc1-c1nnnn1-c1ccc(C)cc1 | 96
COc1cc(NS(=O)(=O)c2ccc(NC(=O)c3cccnc3)cc2)ncn1 | 101
Cc1nnc(SCC(=O)c2ccc(O)c(O)c2)s1 | 96
COc1ccc(C2=NN(C(=O)CN3CCCCC3)C(c3ccc(OC)cc3)C2)cc1 (stereo unspecified) | 91
CCCC(C(=O)O)N1C(=O)/C(=C/c2ccc[nH]2)SC1=S (stereo unspecified) | 119
CCn1c2c(c(=O)[nH]c1=O)C(c1ccc(C)cc1)C1=C(CC(C)(C)CC1=O)N2 (stereo unspecified) | 94
CC(C)COc1ccccc1OCC(C)C | 95
CC[C@H]1OC(=O)[C@H](C)[C@@H](O[C@H]2C[C@@](C)(OC)[C@@H](O)[C@H](C)O2)[C@H](C)[C@@H](O[C@@H]2O[C@H](C)C[C@H](N(C)C)[C@H]2O)C(C)(O)C[C@@H](C)CN(C)[C@H](C)[C@@H](O)[C@]1(C)O (stereo partly specified) | 97
Cc1cc(O)c(C(=O)Nc2ccc(Cl)c(Cl)c2)c(=O)n1C | 95
COc1ccc(CCNC(N)=O)cc1OC | 94
CC(C)N(C(=O)c1ccc2ccccc2c1)C(C)C | 95
CC(Oc1ccc(Br)cc1)C(=O)NCc1ccncc1 (stereo unspecified) | 95
Oc1ccc(C2CNCc3sccc32)cc1O (stereo unspecified) | 95
Cc1onc(-c2ccccc2Cl)c1C(=O)N(Cc1nc(-c2ccccc2)no1)C(C)C | 89
CCN(CC)c1ccc(/C=N/n2c(C)cc(C)cc2=O)cc1 | 94
CC(Oc1cccc2c1CCN(C)C2=O)c1ccccc1 (stereo unspecified) | 101
Oc1ccc(C(=S)N2CCCCCC2)cc1 | 92
O=S(=O)(c1ccc(NC(=S)N2CCCC2)cc1)N1CCCCC1 | 97
O=C(Nc1ccc2c(c1)OCO2)NN1CCOCC1 | 89
COc1ccc2[nH]cc(C3=CCNCC3)c2c1 | 100
Nc1cc2c(ncn2CCOCP(=O)(O)O)c(=O)[nH]1 | 94
Oc1ccccc1-c1cc(-c2ccccc2)n[nH]1 | 97
N#C/C(=C\c1cn(CCC(N)=O)c2ccccc12)Sc1nc2ccccc2s1 | 97
O=C(O)Cc1nc(-c2ccncc2)n[nH]1 | 98
CCN(C(=O)COc1ccc(Cl)cc1)C1CCCCC1 | 72
O=C(Nc1ccccc1)Nc1ccc(F)cc1 | 93

# Brought forward from above: 8 compounds; new compounds follow.
SMILES | RVFV N-RNA FP
O=C(Nc1ccc2c(c1)OCO2)NN1CCOCC1 | 89
COc1ccc2[nH]cc(C3=CCNCC3)c2c1 | 100
Nc1cc2c(ncn2CCOCP(=O)(O)O)c(=O)[nH]1 | 94
Oc1ccccc1-c1cc(-c2ccccc2)n[nH]1 | 97
N#C/C(=C\c1cn(CCC(N)=O)c2ccccc12)Sc1nc2ccccc2s1 | 97
O=C(O)Cc1nc(-c2ccncc2)n[nH]1 | 98
CCN(C(=O)COc1ccc(Cl)cc1)C1CCCCC1 | 72
O=C(Nc1ccccc1)Nc1ccc(F)cc1 | 93
OC[C@H]1OC(n2cnc3c(N[C@H]4CCC[C@@H]4O)ncnc32)[C@H](O)[C@@H]1O (stereo partly specified) | 91
Cc1ncc([N+](=O)[O-])n1CCO | 94&95
COc1ccc(NC(=O)OCC(C)C)cc1OC | 96
CC1SCC(NC(=O)c2ccc(Cl)cc2)CS1 (stereo unspecified) | 105
O=S(=O)(NCC(c1ccco1)S(=O)(=O)c1ccccc1)c1ccccc1 (stereo unspecified) | 99
CN(C)C(=O)c1ccccc1NC(=O)Nc1ccccc1 | 96
O=C(CSc1nc2c(c(=O)n1-c1ccccc1)SCC2)Nc1nccs1 | 106
CC(OC(=O)C(C)N1C(=O)c2ccccc2C1=O)C(=O)c1ccccc1 (stereo unspecified) | 89
O=C(Nc1ncnc2sccc12)c1cccs1 | 96
Cc1cc2nnc(C(=O)/C=C/N(C)C)c(C)n2n1 | 97
CCN=C1S/C(=C/c2cn(CC(=O)Nc3ccccc3)c3ccccc23)C(=O)N1CC | 91
ONc1nc2ccccc2nc1NO | 97
CC(C)Cn1ncc(=O)n(CC(C)C)c1=O | 105
Cc1ccc(C)c(N2CCN(C3CCCCCCC3)CC2)c1 | 100
CCC(=O)Nc1nc(-c2ccccn2)cs1 | 97
COc1ccc2oc(-c3ccco3)cc(=O)c2c1 | 94
Cc1ccccc1C(=O)Nc1ccc(-c2ccc3nncn3n2)cc1 | 98
CC(C)(C)NC(=O)c1ccc2c(c1)C(=O)N(Cc1ccco1)C2=O | 89
COC(=O)c1sc2cc(OC)ccc2c1Cl | 109
CC(=O)N(Cc1ccccc1)Cc1cc2ccc(C)cc2[nH]c1=O | 101
O=C1C2C3C=CC(C3)C2C(=O)N1c1ccncc1 (stereo unspecified) | 96
CCN1C(=O)/C(=C/c2ccccc2)N(C)C1=S | 99
N#CCCN(Cc1ccccc1)C(=O)Nc1ccc2c(c1)CCO2 | 101
CC1(C)CN=C(N(C(=O)Nc2cccc(Cl)c2)C2CCCCC2)S1 | 92
CCSCC(=O)N1CCN(c2nnc(-c3ccccc3)c3ccccc23)CC1 | 97
COc1cccc(OC)c1OCCOc1ccccc1C | 99
CCS(=O)(=O)Nc1cccc(C(=O)CC2(O)C(=O)Nc3ccc(Br)cc32)c1 (stereo unspecified) | 92
CS(=O)(=O)c1nc2ccccc2n1CC(=O)N1CCCC1 | 95
O=C1CC(=O)N(CCC2=CCCCC2)C(=O)N1 | 94
CC1CCN(C(=O)NC(C(F)(F)F)C(F)(F)F)CC1 | 92
CCCCN1C(=O)SC(Nc2ccc(F)cc2)C1=O (stereo unspecified) | 99
CC(C)CC(NC(=O)c1ccc(C#CC(C)(C)O)s1)C(=O)O (stereo unspecified) | 77
CSc1nc(-c2ccccc2)ccc1C#N | 95
NC(=O)c1c(NC(=O)/C=C/c2cccs2)sc2c1CCCC2 | 92
NC(=O)Cn1cnc2c(nnn2-c2ccc(OC(F)(F)F)cc2)c1=O | 100
Cc1occc1C(=O)NC1CCN(C)CC1 | 109
O=C(Nc1cccc(Cn2cccn2)c1)c1csc2ccccc12 | 97
O=C(O)C1Nc2c(I)cccc2C2C=CCC12 (stereo unspecified) | 88
CCC(=O)Nc1ccc(C(=O)N2CCN(c3ccccc3)CC2)cc1 | 92
Cc1cc2ncn(S(C)(=O)=O)c2cc1C | 95
O=C1NCCN/C1=C\C(=O)c1ccccc1 | 90
O=C(NCCc1ccccc1)C(F)(F)C(F)F | 95
CCOC(=O)c1c(NC(=S)NCc2cc(C)n(C)n2)sc2c1CCCC2 | 100
CCCC(Nc1cccc(Br)c1)N1C(=O)CCC1=O (stereo unspecified) | 92
Cc1cc(C(=O)NC(C)C(C)(C)C)cs1 (stereo unspecified) | 97
CC1(C)CC(=O)C2=C(C1)Nc1ccc3ccccc3c1C2c1ccco1 (stereo unspecified) | 85
N[C@@H](COP(=O)(O)O)C(=O)O | 110&100
CN1C(=O)CN=C(c2ccccc2)c2cc(Cl)ccc21 | 90
C#CCn1c(=O)c2c(ncn2C)n(C)c1=O | 94
Oc1ccc(Cn2cc[nH]c2=S)cc1 | 89
CCCNC(=O)OCC12CC3CC(CC(C3)C1)C2 | 97
O=C(CCCN1C(=O)CCC1=O)Nc1cccc2c1CCCC2 | 97
OCCN(CCO)Cc1ccccc1 | 95
Cc1onc(-c2ccc(Cl)cc2)c1-c1ccnc(SCC(=O)c2ccccc2)n1 | 87
CCn1c(Cc2nnc(SCC(=O)c3ccc(F)cc3)n2CC)nnc1SCC(=O)c1ccc(F)cc1 | 97
O=C(Nc1c2c(nn1-c1ccccc1)CSC2)c1ccc(Cl)cc1 | 92
C=CCn1c(CSCc2ccc(F)cc2)n[nH]c1=S | 102
O=C(O)Cc1ccc(O)c(O)c1 | 101
Cc1onc(-c2ccccc2)c1CNS(=O)(=O)c1ccccc1 | 90
COC(=O)NC(c1ccccc1)c1ccccc1 | 93

# Next records follow.
SMILES | RVFV N-RNA FP
CC(=O)Oc1ccccc1C(=O)N1C(C)CCCC1C (stereo unspecified) | 100
COc1ccccc1OC(=O)C1CC(=O)N(c2ccc(Cl)cc2)C1 (stereo unspecified) | 92
O=C(Cc1cccs1)N1CCN(CCc2ccccc2)CC1 | 99
O=C(O)CSCC(=O)Nc1ccccn1 | 92
CN(C)CCCn1c(N)c2c3c(sc2nc1=O)COC(C)(C)C3 | 95
CC1C=CC(C)C(C(=O)O)C1C(=O)O (stereo unspecified) | 90

# Grouped by structure: those above with a tert-butyl group (three)
SMILES | RVFV N-RNA FP
CNS(=O)(=O)c1cc(C(C)(C)C)cc(C)c1C | 99
CC(C)(C)NC(=O)c1ccc2c(c1)C(=O)N(Cc1ccco1)C2=O | 89
Cc1cc(C(=O)NC(C)C(C)(C)C)cs1 (stereo unspecified) | 97
